PV pol inh: poliovirus RdRp elongation inhibitors, primary screen, biochemical, fluorescence polarization, total intensity. Genome polyprotein (Poliovirus type 1 (strain Mahoney)), P03300. poliovirus polymerase elongation; active compounds read low. % elongation, % (compound at 16.7 µg/mL). 150,000 compounds, 0.66% hits. AID 588519, 2011; in the data active means % elongation below about 90%; further: some results filed as inactive read as strong as hits
MbtI inh: MbtI salicylate synthase inhibitors, primary screen, biochemical, fluorescence intensity. 100,000 compounds, 0.89% hits. inhibition, %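 (about 17 µg/mL by stock and volumes)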. purified MbtI enzyme, fluorescence intensity read-out. P9WFX0. AID 493033, 2011;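 active means above 50% in both replicates, above 80% if mildly self-fluorescent; inactive means the rest, strongly fluorescent compounds included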;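 further: 0% = mean of negative and 100% = mean of positive controls; one replicate is shown; some compounds called inactive have numbers as strong as hits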
Target sequence (P9WFX0 whole entry, looked up): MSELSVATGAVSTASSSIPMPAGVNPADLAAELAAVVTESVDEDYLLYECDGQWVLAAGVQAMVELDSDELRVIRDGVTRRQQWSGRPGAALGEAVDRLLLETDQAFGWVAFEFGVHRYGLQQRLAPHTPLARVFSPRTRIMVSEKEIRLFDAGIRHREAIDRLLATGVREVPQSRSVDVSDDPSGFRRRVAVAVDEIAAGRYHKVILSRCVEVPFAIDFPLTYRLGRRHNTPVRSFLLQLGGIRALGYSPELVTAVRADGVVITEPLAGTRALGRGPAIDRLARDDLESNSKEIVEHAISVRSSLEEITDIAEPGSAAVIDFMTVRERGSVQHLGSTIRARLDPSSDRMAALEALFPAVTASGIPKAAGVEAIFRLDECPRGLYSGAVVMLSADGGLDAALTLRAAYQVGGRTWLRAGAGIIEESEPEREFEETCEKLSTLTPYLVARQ
Mtb MenB inh: M. tuberculosis MenB inhibitors, primary screen, biochemical, absorbance. 1,4-dihydroxy-2-naphthoyl-CoA synthase (Mycobacterium tuberculosis (strain ATCC 25618 / …. MenB enzyme assay, absorbance read-out; some hits fall short of the stated cut. inhibition, %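 (about 12 µg/mL by stock and volumes)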. 100,000 compounds, 0.43% hits;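 active means mean of two replicates above 30%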;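 further: 0% = no compound and 100% = wells with inactive enzyme; the first replicate is given; strong numbers were not always called active; inactives centre near -10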
Target sequence (P9WNP5 whole entry, looked up): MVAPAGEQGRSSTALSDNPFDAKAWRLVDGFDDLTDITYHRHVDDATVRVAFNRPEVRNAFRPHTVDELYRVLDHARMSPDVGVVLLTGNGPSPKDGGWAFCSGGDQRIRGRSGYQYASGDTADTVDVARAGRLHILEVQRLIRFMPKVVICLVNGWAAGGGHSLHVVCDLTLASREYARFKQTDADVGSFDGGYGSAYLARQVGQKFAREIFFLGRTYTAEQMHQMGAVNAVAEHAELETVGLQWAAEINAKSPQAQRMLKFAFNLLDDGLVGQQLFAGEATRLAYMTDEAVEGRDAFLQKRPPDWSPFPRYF
PV pol inh intensity: recorded beside PV pol inh, whose call it bears; % elongation; measured here: total intensity read-out; formula for this scale not given here;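 total fluorescence in place of polarization; lower means less elongation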
* = called active by the depositor; i = inactive; / = not tested or not shown; & = joins results of further samples.

Values in the order – PV pol inh, PV pol inh intensity, MbtI inh, Mtb MenB inh
> COc1cccc(CNC(=O)C(C)n2c3ccccc3c3cnn(C)c(=O)c32)c1 (stereo not given)
→ 101, 103, 6, -7
> CCN(c1ccccc1)c1cc(C)c2ccccc2n1
→ 106, 115, 113, -21
> O=C(NCCOc1ccccc1)C1=CC=CN2CCS(=O)(=O)N=C12
→ 103, 108, 30, 0
> Fc1ccc(NC2=NCCC2)cc1
→ 108, 107, -5, 7
> NS(=O)(=O)c1ccc(NC(=O)CSc2nc3ccccc3n2C2CCCCC2)cc1
→ 107, 104, -3, -1
> O=C(NC1CC1)c1ccc(OCC2CCCO2)cc1 (stereo not given)
→ 108, 112, 13, -24
> C=CCNC(=O)CSc1nc2scc(-c3ccco3)c2c(=O)n1CC=C
→ 100, 104, -16, -16
> Cn1c(CO)nc2cc(N)ccc21
→ 97, 97, 17, -85
> CC(C)(C)OC(=O)N1CCN(c2ncnc3nc[nH]c23)CC1
→ 104, 102, -5, -23
> CC(C)c1ccc(NS(=O)(=O)c2ccc(N3C(=O)CCC3=O)cc2)cc1
→ 106, 100, -5, -12
> N#Cc1c(C(F)(F)F)cc(-c2ccccc2)n(N)c1=O
→ 108, 110, -18, -29
> Cc1cc(C(=O)NN)c(C)n1-c1ccccc1
→ 101, 92, 0, -8
> COc1ccc(C(=S)N2CCCC2)cc1OC
→ 101, 99, 6, 1
> CC(=O)Oc1ccc(Cl)c2cccnc12
→ 101, 107, -8, 2
> COc1ccc(NC(=O)CCCn2sc3ccccc3c2=O)cc1
→ 99, 103, 1, -1
> Cc1ccc(N(CC(=O)Nc2cc(C)ccc2C)S(=O)(=O)c2c(C)nn(C)c2C)cc1
→ 103, 103, -1, -17
> COc1ccc(S(=O)(=O)/C=C/c2ccccc2)cc1
→ 101, 100, -16, 13
> CCN(CC)CC(=O)Nc1ccc(-c2ccc(NC(=O)CN(CC)CC)cc2)cc1
→ 101, 99, -50, -1
> CC1(C)CC(=O)C(C(O)c2ccccc2)C(C)(C)N1 (stereo not given)
→ 101, 107, /, -11
> Cc1ccc(N2C(=O)CC(C(=O)NC3(C)CCS(=O)(=O)C3)C2c2cccs2)cc1 (stereo not given)
→ 101, 106, -4, 0

Arranged by formula weight (rising): some entries from above.
Values in the order – PV pol inh, PV pol inh intensity, MbtI inh, Mtb MenB inh
> CC(=O)Oc1ccc(Cl)c2cccnc12
→ 101, 107, -8, 2
> Cc1cc(C(=O)NN)c(C)n1-c1ccccc1
→ 101, 92, 0, -8
> COc1ccc(C(=S)N2CCCC2)cc1OC
→ 101, 99, 6, 1

(continued)
Values in the order – PV pol inh, PV pol inh intensity, MbtI inh, Mtb MenB inh
> Cc1ccc2cc(C#N)c(N3CCCN(C(=O)C4CCCCC4)CC3)nc2c1
→ 99, 103, 4, 17
> Cn1cccc1C(=O)Nc1cc(S(C)(=O)=O)ccc1Cl
→ 97, 102, 22, -3
> O=C(CCN1C(=O)c2ccccc2C1=O)Oc1c(-c2ccco2)oc2ccccc2c1=O
→ 101, 105, -95, -18
> O=C(CN1C(=O)C2C3C=CC(C3)C2C1=O)OCC(=O)c1ccccc1 (stereo not given)
→ 99, 101, -9, -3
> CC1CCCCC1NC(=O)CSc1nnc(CC(=O)Nc2ccccc2Cl)n1C (stereo not given)
→ 100, 102, -5, -18
> CCOC(=O)N1CCN(c2cc(C(F)(F)F)nc3c(Cl)cccc23)CC1
→ 105, 107, -1, -27
> CCn1c(O)c(C=NCC(c2ccc(OC)cc2)N(C)C)c(=O)n(CC)c1=S (stereo not given)
→ 102, 97, 16, -15
> COc1ccc(/C=C2\SC(=O)NC2=S)cc1OC
→ 90, 146, 64*, -65
> COc1ccc(Nc2cc(N3CCCCC3)ncn2)cc1
→ 98, 103, 2, 11
> Cc1nc2cc(O)c(O)cc2s1
→ 105, 105, -2, 4
> COc1ccccc1CNC(=O)C1c2ccccc2C(=O)N2CCc3ccccc3C12 (stereo not given)
→ 101, 100, -2, -8
> COc1ccccc1N=Cc1sc2ccccc2c1O
→ 72&77, 190&179, -5&-6, -28
> O=C(CSc1nc2ccccc2o1)NCC12CC3CC(CC(C3)C1)C2
→ 101, 97, /, -33
> CSc1nn(-c2ccc(C(=O)OCC(=O)N(C)C)cc2)c(=S)s1
→ 101, 100, 3, -78
> CN(C)CCCNc1oc(-c2ccccc2)nc1C#N
→ 105, 106, 105, -19
> C[C@H]1C[C@@H]2[C@H]([C@@H](O)C[C@@]3(C)[C@H]2CC[C@]3(O)C(=O)CO)[C@@]2(C)C=CC(=O)C=C12
→ 99, 99, -16, -10
> C/C=C/C(=O)NCC1OCCc2ccccc21 (stereo not given)
→ 102, 103, -6, -4
> CC1C(c2ccccc2)OCCN1C(=O)CCN1C(=O)c2ccccc2C1=O (stereo not given)
→ 106, 109, -13, -1
> CC(C)N1C(=O)S/C(=C/c2cc3c(cc2Cl)OCO3)C1=O
→ 101, 102, -3, -4
> CS(=O)(=O)c1ccc(C(=O)N2CCN(c3ccccc3)CC2)cc1
→ 105, 97, -1, -26
> O=C(NC1CCS(=O)(=O)C1)/C(=C/c1ccco1)NC(=O)c1ccccc1 (stereo not given)
→ 102, 103, 15, 13
> CCN1CCN(C(=O)c2ccc3c(c2)NC(=O)c2ccccc2S3)CC1
→ 105, 103, 0, -11
> CCN(Cc1ccccc1)C(=O)CSc1nc2ncccc2o1
→ 100, 102, -1, 3
> CC(=O)OC1CCN(c2cc(C(F)(F)F)nc3cc(Cl)cc(Cl)c23)CC1
→ 105, 109, -8, -4
> O=C1CSC(=O)N1CC(O)CCl (stereo not given)
→ 100, 102, -4, /
> CC1(C)C(c2ccccc2)=[N+]([O-])C(c2ccc(Br)cc2)N1O (stereo not given)
→ 100, 95, -8, -22
> COc1cccc(CNC(=O)c2nnc(CS(=O)(=O)c3ccccc3)o2)c1
→ 103, 101, -7, -10
> Cc1cc(NC(=O)COCC(=O)O)ccc1-n1cnnn1
→ 101, 98, 13, 6
> COc1ccc(Cc2nn3c(-c4ccccc4Br)nnc3s2)cc1
→ 102, 95, -4, -34
> O=C(O)c1cccc(OC(F)F)c1
→ 98, 91, -3, -24
> CCC(=O)N=c1sc2c(C)cc(C)cc2n1CC
→ 99, 107, 2, -10
> COC(=O)C(C)Oc1cc2oc(=O)cc(C)c2cc1Cl (stereo not given)
→ 101, 109, 15, 1
> Cc1ccc(C)c(SCC(=O)NC(C)C(c2ccccc2)N2CCOCC2)c1 (stereo not given)
→ 88*, 79*, 2, /
> Cc1cc(COC(=O)CSc2cc(C)c3ccccc3n2)no1
→ 103, 107, -11, -29
> CC(C)(C)OC(=O)/C(C#N)=C/c1ccc(C#N)cc1
→ 104, 105, -10, 1
> CC(C)c1ccc(C(=O)Nc2ccccc2N2CCN(C)CC2)c(C(C)C)c1
→ 101, 110, 7, -26
> Cc1ccccc1-c1nnc(SCC(=O)Oc2c(C)cccc2C)o1
→ 104, 105, -9, -19
> O=C(Nc1ccc2c(c1)oc1ccc(S(=O)(=O)N3CCCC3)cc12)C1CC1
→ 98, 104, i, -16
> COc1cccc(CNC(=O)c2cnn3c(C)c(Cc4c(C)cc(C)cc4C)c(C)nc23)c1
→ 103, 98, 26, -21
> CCN1CCCC1CNC(=O)c1nnc(Cc2ccccc2OC)o1 (stereo not given)
→ 99, 101, 8, 6

Copied from the list:
Value of CC(=O)OC1CCN(c2cc(C(F)(F)F)nc3cc(Cl)cc(Cl)c23)CC1 in PV pol inh: 105
Value of CCN(Cc1ccccc1)C(=O)CSc1nc2ncccc2o1 in PV pol inh intensity: 102
Value of Cc1ccc(C)c(SCC(=O)NC(C)C(c2ccccc2)N2CCOCC2)c1 (stereo not given) in PV pol inh: 88*
Value of COc1cccc(CNC(=O)c2nnc(CS(=O)(=O)c3ccccc3)o2)c1 in MbtI inh: -7
Value of O=C(Nc1ccc2c(c1)oc1ccc(S(=O)(=O)N3CCCC3)cc12)C1CC1 in PV pol inh: 98
Value of CCC(=O)N=c1sc2c(C)cc(C)cc2n1CC in Mtb MenB inh: -10

(listing goes on)
Values in the order – PV pol inh, PV pol inh intensity, MbtI inh, Mtb MenB inh
> COc1ccc(N)cc1N=Cc1ccc(C#N)cc1
→ 87, 181, 6, /
> Cc1ccc(C)n1-c1n[nH]c(=S)s1
→ 99, 100, 55, -26
> O=C(NCc1ccco1)C1CCN(c2nc3ccccc3[nH]2)CC1
→ 102, 105, -11, -31
> CC(C)c1ccc(-c2csc3nc[nH]c(=O)c23)cc1
→ 100, 96, -3, /
> Cc1[nH]c2ccc(C(=O)NCC3CCCO3)cc2c1C (stereo not given)
→ 107, 103, -44, -2
> COc1ccc(S(=O)(=O)N2CCC(C(=O)NC(c3nc4ccccc4[nH]3)C(C)C)CC2)cc1 (stereo not given)
→ 104, 111, 4, -30
> O=C(Cn1c(=O)cnc2ccccc21)NC(=O)NC1CCCCC1
→ 104, 98, 49, 8
> NS(=O)(=O)c1ccc(CCNC(=O)C2(S(=O)(=O)c3ccc(Cl)cc3)CC2)cc1
→ 100, 102, -8, 0
> CC(=O)Nc1ccc(N2COc3ccc(Cl)cc3C2)cc1
→ 104, 105, -7, -4
> O=C(CSc1nc2scc(-c3ccco3)c2c(=O)n1-c1ccccc1)Nc1ccccc1
→ 106, 109, 37, -18
> O=S(=O)(/C=C/c1ccccc1)N1C=Cc2ccccc2C1c1c[nH]c2ccccc12 (stereo not given)
→ 97, 100, -5, -32
> COC(=O)c1ccc2c(=O)[nH]c(CSc3nnc(N)s3)nc2c1
→ 103, 112, 2, -13
> CNC(=S)N/N=C(\C)c1cccc(C(F)(F)F)c1
→ 99, 104, 30, -12
> O=C(/C=C/c1cccs1)NCCN1C(=O)S/C(=C\c2cccs2)C1=O
→ 105, 102, 0, -50
> O=C(Sc1ccc(Cl)cc1)c1ccno1
→ 96, 96, 65*, -5
> CCn1c(O)c(N=Nc2c(C)n(C)n(-c3ccccc3)c2=O)sc1=S
→ 102, 90, 36, -72
> COc1ccc(CNC(=O)CCCOc2ccccc2)cc1
→ 99, 107, -17, -16
> COC(=O)c1nnn(-c2nonc2N)c1CSc1ccccn1
→ 99, 101, 5, -2
> O=C(Nc1ccccc1)Nc1ccc(Oc2ncnc3cc(Cl)ccc23)nc1
→ 100, 104, -1, 11
> Cn1c(=O)c2cc(Br)ccc2n(C)c1=O
→ 102, 104, -8, -8
> COc1ccc(NC(=O)CSc2nnc(N)n2CC(=O)Nc2ccc(OC)cc2)cc1
→ 101, 103, -17, -30
> CCCCC1(C(=O)OC)NC(c2ccc(O)cc2)C2C(=O)N(c3ccccc3)C(=O)C21 (stereo not given)
→ 100, 99, -14, -9
> CCCCC/C=C\C/C=C\CCCCCCCC(=O)O[C@@H](CO)COC(=O)CCCCCCCCCCCCCCCCC
→ 103&101, 106&105, -21, -6
> C=CCN1C(=O)C(CC(=O)Nc2ccc(C)cc2)SC1=Nc1cccc(O)c1 (stereo not given)
→ 101, 107, 0, -7
> CCOC(=O)c1ccc2c(c1)[C@@H]1C=CC[C@@H]1[C@H](c1cccnc1)N2
→ 101, 107, 32, -2
> COc1ccc(C2SCC(=O)N2CCN2CCCCC2)cc1OC (stereo not given)
→ 101, 91, /, -14
> COC(=O)c1cc(OC)c(OC)cc1NC(=O)c1ccc2c(=O)n3c(nc2c1)CCCCC3
→ 100, 94, -28, 3
> O=C(c1c[nH]c(-c2nc3ccccc3[nH]2)c1)c1ccccc1O
→ 141, 165, -1, -16
> CCCCN1C(=O)C2(/C(=C(/O)c3ccc(OCC)cc3)C(=O)C(=O)N2CCOC)c2ccccc21 (stereo not given)
→ 100, 100, 8, 10
> O=C(Nc1ccccc1O)c1sc2ccccc2c1Cl
→ 102, 106, 1, /
> COc1ccccc1NC(=O)NC(C)(C)CC(C)(C)C
→ 101, 100, -8, -11

Record cards, from the list above. Order of screens: PV pol inh	PV pol inh intensity	MbtI inh	Mtb MenB inh
Listed for COc1ccccc1NC(=O)NC(C)(C)CC(C)(C)C → 101	100	-8	-11
Listed for COC(=O)c1cc(OC)c(OC)cc1NC(=O)c1ccc2c(=O)n3c(nc2c1)CCCCC3 → 100	94	-28	3
Listed for O=C(c1c[nH]c(-c2nc3ccccc3[nH]2)c1)c1ccccc1O → 141	165	-1	-16

Rows were taken by chance. Share with any hit: about 1.9%.
